FGF22 binding – shifts melting point of recombinant human FGF22 | calls only at 9.99 µM | Q9HCT0 | recombinant FGF22 thermal shift, SYPRO orange fluorescence; percent of sucrose octasulfate shift, DMSO zero | 340,000 tested, 1.5% active | AID 651658;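 active = melting point raised past a set limit in the mean and every replicate; three in four hits are not shown here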
Target sequence (Q9HCT0 whole entry, looked up): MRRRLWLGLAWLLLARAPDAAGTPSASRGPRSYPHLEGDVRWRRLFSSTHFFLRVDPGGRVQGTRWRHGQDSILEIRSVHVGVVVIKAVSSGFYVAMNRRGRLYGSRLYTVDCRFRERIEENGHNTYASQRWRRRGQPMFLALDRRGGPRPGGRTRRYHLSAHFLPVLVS
rRNA inh HTS – selective bacterial rRNA inhibition in E. coli | E. coli WT GFP vs humanized-ribosome RFP mutants, fluorescence, 24 h; hits give low values; DMSO median 0, no signal -100 | GFP signal change (wild-type ribosome), % (no concentration beside the values) | 350,000 tested, 1.6% active | AID 720706;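 active = significant combined selectivity score with lowered wild-type GFP, culture density cut under 30%, mutant RFP and density less affected; inactive = any of these conditions unmet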; note: one replicate is shown; some compounds called inactive have numbers as strong as hits
MLL AF4-AF9 inh – inhibitors of human MLL-AF4/AF9 interaction | inhibition, % at 10 µM | 350,000 tested, 0.47% active | AlphaScreen, biotin-AF4 peptide binding to FLAG-AF9;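 active = every replicate reaching a set inhibition limit, whatever the replicate mean, cut at about 25% in these data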;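 note: 0% = plate neutral control median and 100% = total signal loss; the record names both 10 and 1 µM as test concentration; the first replicate is given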
Target sequence (P42568 whole entry, looked up): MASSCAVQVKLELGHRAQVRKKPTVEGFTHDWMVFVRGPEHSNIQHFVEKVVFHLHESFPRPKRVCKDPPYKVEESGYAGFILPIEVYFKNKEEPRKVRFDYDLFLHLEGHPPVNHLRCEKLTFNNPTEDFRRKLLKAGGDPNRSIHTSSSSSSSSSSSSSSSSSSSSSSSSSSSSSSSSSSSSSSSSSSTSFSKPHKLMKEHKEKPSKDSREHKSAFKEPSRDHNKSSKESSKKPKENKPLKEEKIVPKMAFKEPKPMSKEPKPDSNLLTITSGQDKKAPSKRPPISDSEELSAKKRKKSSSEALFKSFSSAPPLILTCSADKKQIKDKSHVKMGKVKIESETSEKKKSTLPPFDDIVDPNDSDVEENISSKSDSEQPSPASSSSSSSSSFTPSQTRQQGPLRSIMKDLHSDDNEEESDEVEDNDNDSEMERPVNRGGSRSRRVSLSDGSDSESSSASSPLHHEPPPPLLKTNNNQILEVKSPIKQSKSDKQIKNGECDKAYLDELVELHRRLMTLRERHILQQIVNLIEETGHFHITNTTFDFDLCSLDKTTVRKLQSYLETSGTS
rRNA inh HTS OD600 – further read-out of rRNA inh HTS, marked with its call; OD600 change, %; measured here: OD600 growth;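 optical density of the mix in the first replicate; 0 = DMSO median and -100 = no signal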
rRNA inh HTS RFP – further read-out of rRNA inh HTS, marked with its call; RFP signal change, %; measured here: RFP humanized mutant strains;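 first replicate; 0 = DMSO median and -100 = no signal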
The depositor's hits bear a star; i = inactive; . = not tested or not shown; & = joins results of further samples. This is a subset; count on the stated rates, not on these rows.

Fields – FGF22 binding, rRNA inh HTS, rRNA inh HTS OD600, rRNA inh HTS RFP, MLL AF4-AF9 inh
C[C@H](CO)N1C[C@H](C)[C@@H](CN(C)C(=O)NC2CCCCC2)Oc2c(NC(=O)c3nc4ccccc4s3)cccc2C1=O
 : i, -9, -11, 2.1, 1.8
CN(C)c1ccc2c(c1)[C@H]1C[C@H](CC(=O)NCc3ccccc3)O[C@@H](CO)[C@H]1O2
 : i, -1, 2, 0.8, 1.4
C[C@H](O)C#Cc1cnc2c(c1)C(=O)N([C@@H](C)CO)C[C@@H](C)[C@@H](CN(C)C(=O)c1ccccc1F)O2
 : i, 2, 5, -0.6, 0.0
COC(=O)CC#C[C@H](C)[C@@H](NS(=O)(=O)c1ccc(C)cc1)C1CCCCC1
 : ., -7, -12, 6.2, -0.5
COc1ccc(OC)c(NC(=O)C2(C)CCN2C(=O)C2(c3ccc(Cl)cc3)CCC2)c1 (centres undefined)
 : i, -1, 2, -1.1, 8.8
C[C@H](CO)N1C[C@H](C)[C@H](CN(C)CC2CC2)Oc2c(NC(=O)Nc3ccccc3)cccc2C1=O
 : i, 3, 0, -0.2, 4.8
C[C@H](CO)N1C[C@H](C)[C@@H](CN(C)S(=O)(=O)c2cccs2)Oc2c(cccc2N(C)C)C1=O
 : i, -9, -22, 0.3, -0.1
COc1ccccc1NC(=O)N[C@@H]1CC[C@@H](CCn2cc(-c3cccnc3)nn2)O[C@@H]1CO
 : i, 1, 3, 2.1, -16
C[C@H]1CN([C@@H](C)CO)C(=O)Cc2cc(N(C)C)ccc2O[C@@H]1CN(C)Cc1ccc(Oc2ccccc2)cc1
 : i, -4, -28, 6.7, 26*
O=C(C[C@H]1CC[C@@H]2[C@H](COC[C@H](O)CN2S(=O)(=O)c2ccc(F)cc2)O1)NCC1CCCCC1
 : i, -5, -8, 11, 28*
CN1C(=O)c2cc(NS(C)(=O)=O)ccc2OC[C@H]2O[C@H](CC(=O)O)CC[C@H]21
 : i, 1, 3, 0.1, -0.8
C[C@@H]1CN([C@@H](C)CO)C(=O)c2cc(NC(=O)Cc3cn(C)c4ccccc34)ccc2O[C@H]1CN(C)S(=O)(=O)c1ccc(Cl)cc1
 : i, -3, -9, -3.8, -13
CC(C)C#Cc1ccc2c(c1)O[C@@H](CN(C)C(=O)c1cccnc1)[C@@H](C)CN([C@H](C)CO)S2(=O)=O
 : i, 0, 7, -0.3, 0.5
C[C@@H]1CCCCO[C@@H](CN(C)Cc2ccccc2)[C@H](C)CN([C@H](C)CO)C(=O)c2cc(NC(=O)Nc3ccc(F)cc3)ccc2O1
 : i, -1, -19, 10, 12
C[C@@H]1CN([C@H](C)CO)C(=O)c2cc(-c3ccc(C#N)cc3)cnc2O[C@@H]1CN(C)C(=O)Nc1ccccc1
 : i, -1, 7, 0.0, -1.0
CC(C)=N/N=C1/NC(=O)C(c2ccc(Cl)cc2)S1 (centres undefined)
 : i, -22, -24, -1.7, -4.2
CC(=O)N(C)C[C@H]1Oc2cc(C#Cc3ccccn3)ccc2S(=O)(=O)N([C@@H](C)CO)C[C@H]1C
 : i, -1, 5, -0.2, -1.0
Cc1cnc(CNC(=O)c2ccc3sc([C@H]4C[C@H](O)[C@@H](CO)O4)nc3c2)cn1
 : i, 12, -2, 1.8, -9.8
CCCCn1nnnc1C(c1cccc2ccccc12)N1CCN(C/C=C/c2ccccc2)CC1 (centres undefined)
 : i, -24, -43, 30, 0.6
C[C@H]1CN([C@@H](C)CO)C(=O)c2ccccc2-c2ccccc2CO[C@H]1CN(C)C(=O)Nc1ccc(F)cc1
 : i, -1, 0, 1.5, -12
C[C@@H]1CN([C@H](C)CO)C(=O)c2cc(/C=C/c3ccccc3)cnc2O[C@@H]1CN(C)C(=O)NC1CCCCC1
 : i, 0, 7, -0.6, -0.4
C[C@H](CO)N1C[C@H](C)[C@H](CN(C)S(=O)(=O)c2ccc(F)cc2)Oc2c(NC(=O)C3CCOCC3)cccc2C1=O
 : i, -1, 13, 0.1, -2.9
CN1CCN(C(=O)C[C@H]2CC[C@@H]3[C@H](COC[C@@H](O)CN3S(=O)(=O)c3cccc(Cl)c3)O2)CC1
 : i, 3, 13, 1.6, -6.7
C[C@@H]1CCCCO[C@H](CN(C)C(=O)Nc2ccc3c(c2)OCO3)[C@H](C)CN([C@@H](C)CO)C(=O)c2cc(NC(=O)Nc3cccc4ccccc34)ccc2O1
 : i, 0, 2, -0.2, -0.6
OC1c2cc(Cl)cc(Cl)c2N=C2CCCN21 (centres undefined)
 : i, -6, -8, -0.4, -0.5
C[C@H](CO)N1C[C@H](C)[C@@H](CN(C)Cc2cccnc2)Oc2ncc(C3=CCCC3)cc2C1=O
 : i, 2, 6, -6.6, -2.8
C[C@H](CO)N1C[C@H](C)[C@@H](CN(C)S(=O)(=O)c2cn(C)cn2)Oc2ccc(N(C)C)cc2CC1=O
 : i, 3, 2, 0.0, -12
COCCNC(=O)C[C@@H]1C[C@H]2c3cc(NS(C)(=O)=O)ccc3O[C@H]2[C@H](CO)O1
 : i, 4, 1, -4.7, -3.1
COc1ccc(NC(=O)N(C)C[C@H]2Oc3ccc(NS(=O)(=O)c4cn(C)cn4)cc3C(=O)N([C@@H](C)CO)C[C@@H]2C)cc1
 : i, 2, 7, -1.3, -4.1
CC(C)n1nnnc1C1c2ccccc2C(=O)N1CCOc1ccccc1 (centres undefined)
 : i, -18*, 1.9*, 4.1*, -1.5

Continuation.
Fields – FGF22 binding, rRNA inh HTS, rRNA inh HTS OD600, rRNA inh HTS RFP, MLL AF4-AF9 inh
C[C@@H]1CCCCO[C@@H](CN(C)C(=O)c2ccccc2)[C@H](C)CN([C@@H](C)CO)C(=O)c2cc(NS(=O)(=O)c3ccccc3)ccc2O1
 : i, -11, 4, 3.6, 2.1
Cc1noc(C)c1NC(=O)N(C)C[C@H]1Oc2ccc(NC(=O)Nc3cccc4ccccc34)cc2CC(=O)N([C@H](C)CO)C[C@H]1C
 : i, 2, 5, -0.3, -1.2
CC(=O)Nc1ccc(NC(=O)CSc2nc(=O)n(CCCN3CCOCC3)c3c2CCC3)cc1
 : i, 13, 18, -1.1, -0.9
C[C@@H]1CN([C@H](C)CO)C(=O)c2cc(NS(=O)(=O)c3ccc(F)cc3)ccc2O[C@@H](C)CCCCO[C@H]1CN(C)C(=O)C1CCCCC1
 : i, -2, -7, 0.3, 6.8
O=S(=O)(N=C1C=CC(=NS(=O)(=O)c2ccccc2)c2ccccc21)c1ccccc1
 : i, -26, -23, -7.8, 0.0
Cc1cc(C(=O)Nc2cccc3c2O[C@@H](CN(C)Cc2ccc(C(=O)Nc4ccccc4N)cc2)[C@@H](C)CN([C@@H](C)CO)C3=O)n(C)n1
 : i, -1, -2, 1.3, 1.8
C[C@H]1CN([C@@H](C)CO)C(=O)c2cccc(NC(=O)Nc3cccc4ccccc34)c2O[C@H]1CN(C)S(=O)(=O)c1cn(C)cn1
 : i, -3, -9, 1.3, -7.8
COCC(=O)Nc1ccc2c(c1)C(=O)N(C)C[C@H](OC)[C@@H](C)CN(C(C)=O)[C@H](C)CO2
 : i, 4, 0, -3.0, 0.2
CCCOc1ccc(F)cc1-c1cc(C(=O)Nc2ccc(C)c(NS(C)(=O)=O)c2)[nH]n1
 : i, -10, -27, 5.0, -6.9
C[C@H](O)[C@@H]1C(=O)N2CCc3c([nH]c4ccccc34)[C@@H]2C[C@@H]1N(C)C(=O)NC1CCCCC1
 : i, 2, 6, -0.6, -0.7
CNC[C@H]1Oc2ccc(NC(=O)Nc3c(C)noc3C)cc2C(=O)N([C@H](C)CO)C[C@@H]1C
 : i, 2, 8, -0.1, -1.9
C[C@H](CO)N1C[C@H](C)[C@@H](CN(C)C(=O)Nc2ccc(F)cc2)Oc2ncc(C#CC3CC3)cc2C1=O
 : i, 1, 6, 0.6, 0.5
CCCCS(=O)(=O)N1CCCc2nc(-c3ccc(Br)cc3)ccc21
 : ., 6, 6, 6.2, 0.0
Cc1ccccc1NC(=O)Nc1ccc2c(c1)C(=O)N(C)[C@@H]1CC[C@H](CC(=O)NCC3CC3)O[C@@H]1CO2
 : i, -3, 4, 0.4, -0.1
COc1ccc2c3c(n(C)c2c1)[C@H](CO)N(Cc1nccs1)CC31CCN(C(C)=O)CC1
 : i, 2, 1, -2.1, 4.5
C[C@@H]1CN([C@@H](C)CO)C(=O)CCCn2nncc2CO[C@H]1CN(C)C(=O)Nc1cccc(Oc2ccccn2)c1
 : i, 3&2, 13&6, -0.8&-0.8, 1.9&0.8&-0.9
CN(C)CC(=O)Nc1ccc2c(c1)[C@H]1C[C@H](CC(=O)NCC3CC3)O[C@H](CO)[C@H]1O2
 : i, 3, 2, -2.0, 0.1
CN1C(=O)c2cc(NC(=O)Nc3ccc(Cl)cc3)ccc2OC[C@@H]2O[C@H](CC(=O)NCCN3CCCCC3)CC[C@H]21
 : i, 2, 3, 1.5, 5.6
C[C@H]1CN([C@@H](C)CO)C(=O)Cc2cc(NS(=O)(=O)c3cn(C)cn3)ccc2O[C@@H]1CN(C)Cc1ccncc1
 : i, 4, 10, -0.9, -1.6
C[C@@H]1CN([C@H](C)CO)C(=O)c2cccc(NC(=O)CCCCCC(=O)Nc3ccccc3N)c2O[C@H]1CN(C)Cc1ccncc1
 : i, 1, 2, -3.2, -1.7
Cc1ccc(S(=O)(=O)Nc2ccc3c(c2)CC(=O)N([C@H](C)CO)C[C@H](C)[C@@H](CN(C)S(C)(=O)=O)O3)cc1
 : i, 4, 6, 1.3, -4.7
C[C@H]1CN([C@@H](C)CO)C(=O)c2cc(C#CC3CCCCC3)cnc2O[C@@H]1CN(C)Cc1ccncc1
 : i, -25, -59, 16, 13
C[C@@H]1CCCCO[C@H](CN(C)C(=O)Cc2ccccc2)[C@H](C)CN([C@H](C)CO)C(=O)c2cc(NS(C)(=O)=O)ccc2O1
 : i, -2, 3, -1.0, 5.9
CCC(=O)N(C)C[C@H]1Oc2ncc(-c3cccc(OC)c3)cc2C(=O)N([C@H](C)CO)C[C@@H]1C
 : i, -4, 10, -0.1, -3.3
Cc1noc(C)c1S(=O)(=O)Nc1ccc2c(c1)C(=O)N([C@@H](C)CO)C[C@@H](C)[C@@H](CN(C)C(=O)Nc1ccc(C(F)(F)F)cc1)OCCCC[C@H](C)O2
 : i, -3, -5, -3.8, -2.0
Cn1cnc(S(=O)(=O)N2C[C@@H](O)COC[C@H]3O[C@@H](CC(=O)NCc4cc(F)cc(F)c4)CC[C@@H]32)c1
 : i, 4, 14, 0.9, -3.4
O=C(Nc1ccccc1)N[C@H]1CC[C@@H](CCn2cc(C3(O)CCCC3)nn2)O[C@H]1CO
 : i, -2, 6, -0.9, 0.1
Cc1noc(C)c1S(=O)(=O)Nc1cccc2c1O[C@@H](CN(C)Cc1ccc3c(c1)OCO3)[C@@H](C)CN([C@H](C)CO)C2=O
 : i, 0, 5, -0.8, -2.5
COc1ccc(S(=O)(=O)N(C)C[C@H]2Oc3c(NC(=O)c4ccc(-c5nccs5)cc4)cccc3C(=O)N([C@@H](C)CO)C[C@@H]2C)cc1
 : i, -2, -1, 1.3, -0.5
COc1ccc(NC(=O)CSc2nnc3n2CCCCC3)cc1S(=O)(=O)N(C)C
 : i, 4, 12, 3.2, -1.1

Next section; it opens with the 2 that closed the last part.
Fields – FGF22 binding, rRNA inh HTS, rRNA inh HTS OD600, rRNA inh HTS RFP, MLL AF4-AF9 inh
COc1ccc(S(=O)(=O)N(C)C[C@H]2Oc3c(NC(=O)c4ccc(-c5nccs5)cc4)cccc3C(=O)N([C@@H](C)CO)C[C@@H]2C)cc1
 : i, -2, -1, 1.3, -0.5
COc1ccc(NC(=O)CSc2nnc3n2CCCCC3)cc1S(=O)(=O)N(C)C
 : i, 4, 12, 3.2, -1.1
CC(C)NC(=O)N(C)C[C@H]1OCCCC[C@@H](C)Oc2ccc(NC(=O)Nc3ccc(C(F)(F)F)cc3)cc2C(=O)N([C@H](C)CO)C[C@@H]1C
 : i, 1, -4, -1.9, 1.9
O[C@H]1C[C@H](c2ccc(Cl)cc2)N(CC2CCCCC2)C[C@@H]1n1cc(-c2ccc(F)cc2)nn1
 : i, 22, 20, -3.0, -9.6
COc1ccc(NC(=O)Nc2ccc3c(c2)C(=O)N([C@@H](C)CO)C[C@@H](C)[C@@H](CN(C)C(=O)NC2CCCCC2)O3)cc1
 : i, -1, -2, -1.3, -1.7
O=C1C(=Cc2ccc(F)cc2)CCc2ccccc21
 : i, -8, -22, -1.1, 2.8
COc1ccc(OC)c(NC(=O)C2(C)CCN2C(=O)CCC2CCCC2)c1 (centres undefined)
 : i, 7, -9, -1.8, 0.6
CCCCC(=O)N(C)c1c(CC)nc2c(OCC(=O)c3ccc(Cl)cc3Cl)cccn12
 : i, -7, -13, 1.1, -1.3

Quoted at random: 4 records from the list, in no set order.
Fields – FGF22 binding, rRNA inh HTS, rRNA inh HTS OD600, rRNA inh HTS RFP, MLL AF4-AF9 inh
COc1ccc(OC)c(NC(=O)C2(C)CCN2C(=O)CCC2CCCC2)c1 (centres undefined)
 : i, 7, -9, -1.8, 0.6
CC(C)NC(=O)N(C)C[C@H]1OCCCC[C@@H](C)Oc2ccc(NC(=O)Nc3ccc(C(F)(F)F)cc3)cc2C(=O)N([C@H](C)CO)C[C@@H]1C
 : i, 1, -4, -1.9, 1.9
CCCCC(=O)N(C)c1c(CC)nc2c(OCC(=O)c3ccc(Cl)cc3Cl)cccn12
 : i, -7, -13, 1.1, -1.3
O=C1C(=Cc2ccc(F)cc2)CCc2ccccc21
 : i, -8, -22, -1.1, 2.8

Screening results: PubChem BioAssay, Broad Institute
